MenB inh – M. tuberculosis MenB inhibitors, primary screen, biochemical, absorbance; MenB enzyme assay, absorbance read-out; some hits fall short of the stated cut; inhibition, %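 (about 12 µg/mL by stock and volumes)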; hit rate 0.43% among 100,000; AID 540299, 2011;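 active = mean of two replicates above 30%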;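 note: 0% = no compound and 100% = wells with inactive enzyme; the first replicate is given; strong numbers were not always called active; inactives centre near -10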
Target sequence (P9WNP5 whole entry, looked up): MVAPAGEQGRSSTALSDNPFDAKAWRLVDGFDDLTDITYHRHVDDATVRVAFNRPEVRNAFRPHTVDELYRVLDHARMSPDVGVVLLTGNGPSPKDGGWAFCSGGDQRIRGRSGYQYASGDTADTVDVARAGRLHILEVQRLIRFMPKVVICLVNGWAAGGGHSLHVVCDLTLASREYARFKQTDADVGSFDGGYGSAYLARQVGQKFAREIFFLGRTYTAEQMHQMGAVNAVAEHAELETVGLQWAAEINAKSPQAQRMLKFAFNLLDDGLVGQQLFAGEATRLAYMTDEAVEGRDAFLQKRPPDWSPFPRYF
MbtI inh – MbtI salicylate synthase inhibitors, primary screen, biochemical, fluorescence intensity; inhibition, %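 (about 17 µg/mL by stock and volumes)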; AID 493033, 2011; purified MbtI enzyme, fluorescence intensity read-out; hit rate 0.89% among 100,000; P9WFX0;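 active = above 50% in both replicates, above 80% if mildly self-fluorescent; inactive = the rest, strongly fluorescent compounds included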;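 note: 0% = mean of negative and 100% = mean of positive controls; one replicate is shown; some compounds called inactive have numbers as strong as hits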
PV pol inh – poliovirus RdRp elongation inhibitors, primary screen, biochemical, fluorescence polarization, total intensity; poliovirus polymerase elongation; active compounds read low; % elongation, % (compound at 16.7 µg/mL); hit rate 0.66% among 150,000; in the data active = % elongation below about 90%; note: some results filed as inactive read as strong as hits
Target sequence (P03300 1749-2209 limits assumed): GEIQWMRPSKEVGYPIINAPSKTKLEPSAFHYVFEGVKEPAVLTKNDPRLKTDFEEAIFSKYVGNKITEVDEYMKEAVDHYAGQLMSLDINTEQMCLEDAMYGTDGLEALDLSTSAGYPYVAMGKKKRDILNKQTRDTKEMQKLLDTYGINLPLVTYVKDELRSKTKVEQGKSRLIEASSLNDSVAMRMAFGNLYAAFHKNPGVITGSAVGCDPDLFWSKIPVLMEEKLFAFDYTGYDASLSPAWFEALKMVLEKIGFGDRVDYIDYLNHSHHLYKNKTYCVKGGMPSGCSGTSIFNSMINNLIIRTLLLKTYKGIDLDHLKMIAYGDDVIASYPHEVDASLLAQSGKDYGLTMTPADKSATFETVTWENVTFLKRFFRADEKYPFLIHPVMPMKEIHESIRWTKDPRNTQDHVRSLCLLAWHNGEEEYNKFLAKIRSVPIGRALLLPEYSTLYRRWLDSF
PV pol inh intensity – further read-out of PV pol inh, marked with its call; % elongation; measured here: total intensity read-out; formula for this scale not given here;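 total fluorescence in place of polarization; lower means less elongation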
An asterisk follows results filed as active; i = inactive; . = not tested or not shown; & = joins results of further samples. Outcome played no part in choosing rows; any-hit rate near 1.8%.

SMILES	MenB inh	MbtI inh	PV pol inh	PV pol inh intensity
CCOC(=O)c1cc(-c2ccccc2)nn1CCC#N	.	2	102	100
CCCn1c(=O)n(C)c(=O)c2c3nc4ccccc4c(-c4ccccc4)c3[nH]c21	-9	-7	43	236
CCOc1ccc2c3c(c(=O)oc2c1OCC)CCCC3	-7	0	102	102
O=C(N/N=C/C1=C(N2CCOCC2)C(=C\c2ccccc2)/CC1)Nc1ccccc1	4	13	97	104
O=C(Cc1cccs1)N(c1nnc(-c2ccc(F)cc2)s1)C1CCCC1	-43	14	101	102
ON1C2CCCCC2N(O)C1c1ccccc1 (configuration not stated)	-21	-2	100	103
O=C(O)CCCC(=O)Nc1ccc(-c2nc3ccccc3[nH]2)cc1	-3	.	104	98
CCOC(=O)c1sc(SC)nc1N	5	.	101	95
CN1C(=S)N(C2CCCCC2)C(=O)/C1=C/c1ccc(N2CCCC2)cc1	0	-3	119	123
CNC(=S)N(Cc1ccccc1)Cc1ccccc1	-32	-9	102	98
CCOC(=O)c1ccccc1NC(=O)c1ccc(-n2nc(C)cc2C)cc1	.	-5	101	106
COc1ccc(/C=C2\SC(=S)N(CC3CCCO3)C2=O)cc1 (configuration not stated)	-16	5	102	98
COC(=O)c1ccc(Cn2cc(S(=O)(=O)N3CCCC3)ccc2=O)o1	-9	9	99	101
CC(C)C(=O)N1C2CCC1CC(O)(c1ccccc1F)C2 (configuration not stated)	-3	-5	103	103
CN(C)S(=O)(=O)c1ccc2oc(SCC(=O)O)nc2c1	8	15	108	104
C1CCC(NC2CCCC2)C1	-21	-3	102	104
C1=Nc2ccccc2-c2nnc(SCc3ccccc3)nc2O1	-26	13	102	91
O=C(c1ccccc1)N(Cc1ccco1)c1nc(-c2ccccc2)cs1	-18	-3	101	102
CCOC(=O)N1CCN(C(=O)Nc2sc3nc4n(c(=O)c3c2C)CCC(C)CC4)CC1 (configuration not stated)	-6	2	104	106
CC(NC(=S)N1CCN(CCO)CC1)C12CC3CC(CC(C3)C1)C2 (configuration not stated)	-25	-4	99	99
O=C(Nc1ccccc1Br)N(C1=NCCS1)c1ccc(Cl)cc1	-25	.	107	110
COc1ccc(NC(=O)C(C(=O)Nc2ccc(OC)cc2)C23CC4CC(CC(C4)C2)C3)cc1	-9	-3	108	109
C=CCn1c(SCc2c(C)noc2C)nc2scc(-c3cccs3)c2c1=O	-59	-6	103	104
O=C(NC1CCCCC1)O/N=C/c1ccc(F)cc1	-7	-12	103	103
C#CC(CC)(CC)NC(=O)C1CC(C)=C(C)CC1C(=O)O (configuration not stated)	10	-11	100	100
CC1CC(C)CN(c2ncnc3c2cnn3-c2ccc(Cl)cc2)C1 (configuration not stated)	-31	7	103	110
CN(C)CCN1C(=O)c2oc3ccccc3c(=O)c2C1c1cccnc1 (configuration not stated)	-19	3	104	98
CCOC(=O)c1c(CN(CC)CC)oc2ccc(OC)cc12	-19	.	106	108
CCSc1nnc(CNc2ccc(F)cc2)n1-c1ccc(C)cc1	-61	-5	99	102
Cc1oc2ncn(C)c(=O)c2c1C(=O)N1CCCCC1	-9	-14	103	104
CCn1c(NCc2ccccn2)nc2ccccc21	-10	-4	101	105
Cc1nn(-c2ccccc2)c(Cl)c1C(=O)NC1CCS(=O)(=O)C1 (configuration not stated)	.	-2	102	105
CCn1c(=O)oc2cc(Br)ccc21	-15	.	100	90
CC(C)(C)CC(=O)Nc1ccc(-c2nnc3n2CCCCC3)cc1	12	-11	100	108
CC(C)(C)c1ccc(/C=C/C(=O)Nc2cccnc2)cc1	-10	8	99	104
Cn1c(C(=O)O)cc2ccccc21	-12	24	102	96
CC1(C)CC(N=CC2=C(O)c3ccccc3C2=O)CC(C)(C)N1	-16	-3	101	103
O=C(Cn1ccc2ccccc2c1=O)NCCC(=O)N1CCCCC1	-10	-1	103	105
O=C(NCc1ccc(F)cc1)C1CC(=O)N(c2ccc(F)cc2)C1 (configuration not stated)	-5	.	99	99
Cc1occc1C(=O)N/N=C/c1c[nH]c2ccccc12	-5	-1	102	105
NC(=O)COc1ccc(S(=O)(=O)c2ccc(OCC(N)=O)cc2)cc1	-35	-25	100	103
O=C(Nc1ccc2c(c1)SC1=NCCN12)C(F)(F)F	-14	0	100	101
O=C1c2ccccc2S(=O)(=O)NN1Cc1nnc(-c2ccccc2Br)o1	7	-28	103	95
CN(C)Cn1c2ccccc2c2ccccc21	-21	-86	102	103
FC(F)(F)c1cccc(CN2CCNCC2)c1	-7	-18	104	112
CSc1nc2ccc(NC(=O)C3CC(=O)N(Cc4ccco4)C3)cc2s1 (configuration not stated)	-38	5	97	102
N#Cc1cc2c(=O)n3ccccc3nc2n(CC2CCCO2)c1=O (configuration not stated)	-79	87	101	126
CCC(Sc1nccn1C)C(=O)Nc1cc(C)on1 (configuration not stated)	4	1	101	104
Cc1cc(C)c(S(=O)(=O)N2CCCC(C(=O)NC3CC3)C2)c(C)c1 (configuration not stated)	-14	-12	103	103
COC(=O)CN1C(=O)S/C(=C/c2ccc(-c3ccc(C(=O)O)cc3)o2)C1=O	-164	56	102	100
COc1ccc(C)cc1N(C)C(=O)c1nn(C)c2c1COc1ccccc1-2	-10	-9	106	103
O=C(NC(=S)NCc1ccccc1)c1ccco1	2	-4	103	102
CCn1cc(C(=O)N(C)C2CCCCC2)c2cc(OC)c(OC)cc2c1=O	-15	5	100	98
CSc1ccccc1C(=O)NCc1cccnc1	-6	-6	103	104
COCCN1Cc2cccc(C(=O)NCc3ccccn3)c2C1=O	-9	3	101	97
CSc1cccc(NC(=O)c2ccc3c(c2)NC(=O)CS3)c1	1	5	97	101
O=C(OCCN1CCCC1=O)c1ccccc1	.	-5	101	96
COc1ccc(N2C(=O)NC(=O)C(Cc3ccc(OC)c(OC)c3)C2=O)cc1 (configuration not stated)	-1	0	102	102
CCN(C(=O)c1cnc2ccc(C)cn2c1=O)c1ccccc1	-2	16	102&100	107&109
c1ccc2sc(CSc3nc4ccccc4s3)nc2c1	-26	-2	112	124
Next structures
SMILES	MenB inh	MbtI inh	PV pol inh	PV pol inh intensity
CCCCC(=O)N1CC(=O)Nc2ccc(C)cc2C1c1ccc(F)cc1 (configuration not stated)	-1	0	100	101
CC1CCC(NC(=O)CN(C)S(=O)(=O)c2ccc3c(c2)CCC(=O)N3)CC1 (configuration not stated)	-9	9	97	101
Oc1c(C(c2ccc(C(F)(F)F)cc2)N2CCOCC2)ccc2cccnc12 (configuration not stated)	-80	64*	111	123
N#CCSc1nc2cc(Cl)ccc2n1Cc1ccccc1	-9	-1	111	120
CC(C)CN1CN(Cc2ccco2)CNC1=S	-22	-2	103	105
CC(C)CN(CC(=O)N1c2ccccc2CC1C)CC(C)C (configuration not stated)	-20	1	99	103
O=C(CN1CCN(Cc2ccccc2)CC1)N1N=CCC1c1ccccc1 (configuration not stated)	-5	-11	103	102
CC1(C)CC(=O)C2=C(C1)Nc1ccccc1N(C(=O)Nc1ccc(Cl)c(Cl)c1)C2c1ccco1 (configuration not stated)	2	1	103	103
O=Nc1sc2ccc3ccccc3c2c1O	-5	69*	95	117
O=C(c1ccccc1NS(=O)(=O)c1ccccc1)N1CCCC1	-10	.	104	105
CSc1cccc(NC(=O)CCS(=O)(=O)c2ccc3c(c2)CCN3C(C)=O)c1	-11	0	103	108
COc1ccc(NC(=O)CN2C(=O)c3ccccc3C2=O)cc1	-7	2	103	106
CC(=O)Nc1nc(C)c(Oc2ccccc2)c(OC(=O)N(C)C)n1	0	-3	106	113
CC(Nc1ccc2c(c1)OCCO2)C(=O)N1c2ccccc2CC1C (configuration not stated)	-11	-10	106	107
OCCNc1nc2ccccc2n1CN1CC=C(c2ccccc2)CC1	5	-8	103	108
CC1(C)CC(NCC(=O)Nc2ccc(C(=O)O)cc2)CC(C)(C)N1	-10	6	98	103
CCOc1cccc2c1OC1(C)C(C(=O)Nc3ccc(OC)cc3)C2NC(=S)N1CCOC (configuration not stated)	-4	-9	102	108
CC1CCCC(NC(=O)COC(=O)Cc2ccsc2)C1C (configuration not stated)	.	-5	100	102
Cc1noc2ncc(C(=O)c3ccccc3O)cc12	-25	12	98	99
Cc1noc(C)c1COc1cccc(C(=O)Nc2ccccc2)c1	10	1	.	.
Nc1nc(CSc2n[nH]c(-c3ccccc3)n2)nc(Nc2ccccc2)n1	-17	-1	104	108
COc1cc(C=C2C(=O)NC(=O)NC2=O)cc(Cl)c1OCC(=O)O	-37	2	102	97
CCOC1CS(=O)(=O)CC1OCC (configuration not stated)	12	-1	101	104
CCCCS(=O)c1nc(-c2ccc(C)cc2)cc(-c2ccccc2)c1C#N (configuration not stated)	-2	100	99	102
Brc1ccc(-c2cc(-c3ccccc3)no2)cc1	-7	-12	101	103
CC1NCc2c(sc3c2CCCC3)-n2cccc21 (configuration not stated)	0	5	101	106
CC(OC(=O)c1ccc2c(=O)n3c(nc2c1)CCC3)C(N)=O (configuration not stated)	10	15	100	97
CN1c2ccccc2N(C)C1c1ccccc1	-17	27	102	104
C[C@]12CC3SC3C[C@@H]1CC[C@@H]1[C@@H]2CC[C@]2(C)[C@@H](O)CC[C@@H]12 (some centres not stated)	4	-18	100	101
COc1ccc(-c2nnc3c4ccccc4c(C)nn23)cc1S(=O)(=O)N(C)CCO	-9	23	99	99
COC(=O)[C@H](C)NC(=O)C(c1ccccc1)c1ccccc1	-6	-4	96	95
O=C(COC(=O)C(O)c1ccccc1)NC12CC3CC(CC(C3)C1)C2 (configuration not stated)	-16	-6	103	106
COc1ccc2c(=S)c(-c3cc4ccccc4o3)c(C)oc2c1	-30	.	101	86
O=C(CCNc1ccc(Br)cc1)c1ccc2c(c1)OCO2	-6	.	102	96
CCCNC(=O)c1oc2ccc3c(c2c1C)C=CC(C)(C)O3	-14	49	100	102
O=S(=O)(c1ccccc1)N1N=C(c2cccs2)CC1c1ccccc1O (configuration not stated)	-48	-3	92	125
O=C(Nc1ccc(Cl)cc1)/C(=C\c1cccs1)c1ccsc1	2	-6	103	111
Cc1nc(N)sc1C(C)(C)C	0	-1	99	100
Cc1ccc(Cc2cnc(I)c(O)c2)cc1	27	6	99	102
CCCN(CCC)S(=O)(=O)c1ccc(Br)cc1	.	-15	102	99
CCOP(=S)(NC(C)C)OCC	-28	-1	99	98
NNC(=O)c1cccnc1Oc1ccccc1	-12	-1	113	118
COC(CN(C)C(=O)c1cc2c(Cl)nc3ccc(C)cc3c2s1)OC	5	0	103	99
Oc1c(C(c2ccccn2)N2CCN(c3ccc(F)cc3)CC2)cc(Cl)c2cccnc12 (configuration not stated)	-54	27	114	212
CN1CCc2c(c(S)[nH]c(=S)c2C#N)C1	-97	i	-17*	48*
CCCS(=O)(=O)N1CCC2(CC1)CC(=O)c1ccccc1O2	-7	86	99	108
Nc1c(N)c2ccccc2oc1=O	23	-8	100	98
COC(=O)c1ccc(CSc2nnc(SC(C)C(=O)c3ccc(F)cc3)s2)o1 (configuration not stated)	-23	20	104	106
O=C(Nc1ccc(-c2nc3ccccc3o2)cc1)c1ccccc1Cl	-14	86	104	97
O=C(Nc1ccc(Cc2ccncc2)cc1)C1CC1	.	-7	102	107
Cc1ccc(NCN2C(=O)C3CC=CCC3C2=O)cc1Cl (configuration not stated)	-20	-9	103	100
O=C1CC(N2CCN(c3ccccn3)CC2)C(=O)N1c1ccc2c(c1)OCO2 (configuration not stated)	-6	-4	104	99
O=C1CCc2cc3c(cc2O1)OC(=O)CC3	-1	-46	109	112
CC1(C)CC(=O)C2=C(C1)Nc1ccccc1NC2c1ccc2c(c1)OCO2 (configuration not stated)	-9	9	100	105
CCOC(=O)c1cnc2cc(-c3ccc(I)cc3)[nH]n2c1=O	8	22	98	102

Screening results from PubChem.
